CapD inh: blocks the Bacillus anthracis CapD enzyme; purified CapD enzyme, fluorescence intensity read-out; hits give low values; some hits fall short of the stated cut; z-score (concentration not given with the values); 0.23% of 140,000 active; AID 492967;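 active means z-score under -4 in either of two replicates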;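 further: stock transfer was 100 nL into about 40 µL; score is relative to mean and spread of the plate; one replicate is shown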
AID504770: growth inhibitors of E. coli YBA685 in a screen for V. cholerae RctB (chromosome II replication) inhibitors | E. coli YBA685 rctB-dependent plasmid, OD600 growth, 3 h; hits give low values | z-score (test concentration not listed) | 0.27% of 130,000 active | AID 504770;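 active means z-score under -2 on both plates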;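 further: wells of about 30 µL received 100 nL stock; score is relative to mean and SD of the test wells; the first replicate is given; strong numbers were not always called active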
The depositor's hits bear a star; x = not tested or not shown. Only part of the results is shown (hit frequency here may not be typical).

Order of values – CapD inh | AID504770
> COc1ccccc1C1CC(c2c(-c3ccccc3)c3cc(Br)ccc3[nH]c2=O)=NN1C(=O)CCC(=O)O (stereo not given)
 : 0.025 | x
> CSC(N)=Nc1c(Cl)cccc1Cl
 : 0.65 | -0.4
> CN(/N=C/c1cc(Cl)cc(Cl)c1O)C(=S)NC(C)(C)C
 : -1.9 | 0.4
> CN(C)c1ccc(/C=N/NC(=O)Cc2ccccc2)cc1
 : 72 | -1.2
> CN(C)S(=O)(=O)c1ccc(C(=O)N2CCCC2c2nc3ccccc3s2)cc1 (stereo not given)
 : x | 0.65
> O=C(CSc1nnc(-c2ccco2)o1)NCCCN1CCCC1=O
 : x | 0.35
> Cn1c(=O)n(-c2cccc(Cl)c2)c(=O)n1C
 : -0.33 | -0.85
> FC(F)(F)c1cc(C(F)(F)F)c2c(n1)[nH]c1ccccc12
 : x | 0.3
> O=C(CN1C(=O)/C(=C/c2ccccc2F)Sc2ccccc21)N1CCN(c2ccc(F)cc2)CC1
 : -0.05 | 0.95
> COc1ccc(C2=NN(C(C)=O)C(c3cccc(OC)c3OC)C2)cc1OC (stereo not given)
 : 2.2 | x

4 entries from above, set out differently.
molecule: COc1ccccc1C1CC(c2c(-c3ccccc3)c3cc(Br)ccc3[nH]c2=O)=NN1C(=O)CCC(=O)O (stereo not given)
  CapD inh: 0.025	AID504770: x

molecule: CN(C)S(=O)(=O)c1ccc(C(=O)N2CCCC2c2nc3ccccc3s2)cc1 (stereo not given)
  CapD inh: x	AID504770: 0.65

molecule: O=C(CN1C(=O)/C(=C/c2ccccc2F)Sc2ccccc21)N1CCN(c2ccc(F)cc2)CC1
  CapD inh: -0.05	AID504770: 0.95

molecule: COc1ccc(C2=NN(C(C)=O)C(c3cccc(OC)c3OC)C2)cc1OC (stereo not given)
  CapD inh: 2.2	AID504770: x

(further entries)
Order of values – CapD inh | AID504770
> NNC(=O)c1c(-c2ccccc2)c(-c2ccccc2)nn2nnnc12
 : 0.7 | 0.25
> COc1ccccc1C(C)NCC(=O)Nc1cc(C)on1 (stereo not given)
 : x | -0.9
> CCC1C(=O)N=C(SCC(=O)Nc2ccc(S(N)(=O)=O)cc2)N(c2ccccc2)C1=O (stereo not given)
 : -0.19 | x
> CC1=C(C(=O)OCCOc2ccccc2)C(c2ccc3c(c2)OCO3)C2=C(CC(c3cccs3)CC2=O)N1 (stereo not given)
 : 2.8 | x
> NC(=O)C1CCCCC1C(=O)O (stereo not given)
 : 0.59 | -0.2
> COc1ccc(C(C)=O)cc1CSc1ccccn1
 : -0.15 | x
> Cc1nc2cc(C(=O)NCCN3CCOCC3)ccc2n1-c1ccc(F)cc1F
 : 0.055 | -1.1
> O=C(c1cccs1)n1ccc(C(F)(F)F)n1
 : -2.3 | -0.6
> Cc1cc(=S)cc(-c2ccccc2)n1CCN1CCOCC1
 : x | 0
> CC(=O)OCC12c3ccccc3C(COC(C)=O)(c3ccccc31)C1C(=O)N(c3ccccc3)C(=O)C12 (stereo not given)
 : -0.5 | x
> CCc1nc2ccccc2c(C(=O)OCC#N)c1C
 : x | -0.25
> CC1CC1c1ccc(/C=C/C(=O)O)o1 (stereo not given)
 : x | -0.4
> CN(CC(=O)NC1=NCCS1)S(=O)(=O)c1ccc(Cl)cc1
 : x | 1.4
> Cc1onc(-c2c(Cl)cccc2Cl)c1NC(=O)NC1CCSC1 (stereo not given)
 : -0.68 | -0.4
> Cc1cccc(C)c1N(C)C(=O)c1cnccc1C(F)(F)F
 : -1 | -0.25
> CCC(C)c1ccc(NS(=O)(=O)c2ccc(Cl)s2)cc1 (stereo not given)
 : -1 | x
> N#C/C(=C\c1ccc(-c2ccc(S(=O)(=O)N3CCOCC3)cc2)o1)S(=O)(=O)c1ccc(Br)cc1
 : x | -0.1
> Cc1csc2c(N3CCSCC3)ncnc12
 : 0.58 | -0.35
> CSc1ccccc1S(=O)(=O)C(C)(C)C
 : x | -0.4
> O=C(CSc1cn[nH]n1)N1CCN(S(=O)(=O)c2ccccc2)C1
 : x | 0.4

Compound profiles, as listed above. Order of screens: CapD inh	AID504770
`COc1ccccc1C(C)NCC(=O)Nc1cc(C)on1` (stereo not given) as listed: x	-0.9
`CN(/N=C/c1cc(Cl)cc(Cl)c1O)C(=S)NC(C)(C)C` as listed: -1.9	0.4

The list continues:
Order of values – CapD inh | AID504770
> O=C(O)CN1C(=O)c2ccc(Oc3ccc4c(c3)C(=O)N(CC(=O)O)C4=O)cc2C1=O
 : x | 0.05
> Cn1c(=O)cc(OCC(=O)NC2CCN(Cc3ccccc3)CC2)c2ccccc21
 : -0.14 | 1.2
> COc1ccc(CNc2ccc(F)cc2C)c2ccccc12
 : 65 | 0.2
> O=C(NC1CCCC1)c1cnn2c(C(F)F)cc(-c3ccccc3)nc12
 : x | 0.2
> COc1ccc(CNC(=O)Nc2ccccc2C)cc1
 : -0.39 | x
> O=C(O)c1ccc2[nH]c3c(c2c1)CSCC3
 : -7.4* | -0.3
> COc1ccccc1N1CCN(c2ncnc3sc(C(=O)N4CCC5(CC4)OCCO5)c(C)c23)CC1
 : -0.095 | x
> COc1ccccc1CN1CCN(C(CC(C)C)c2nnnn2Cc2ccc(F)cc2)CC1 (stereo not given)
 : x | -0.45
> CC1=Nc2ccccc2N=C(NC(=O)/C=C/C(=O)O)C1c1ccccc1 (stereo not given)
 : 0.46 | 0.05
> CCc1ccc(NC(=O)CC(=O)Nc2ccc3nc4n(c(=O)c3c2)CCCCC4)cc1
 : 0.13 | -0.55
> C=CCN1C(=O)OC(C)(C)C1(C)O (stereo not given)
 : -0.24 | x
> CCN(CC(=O)Nc1cc(Cl)ccc1C)C(=O)C1CCCCC1
 : x | 1.5
> CS(=O)c1ccc(NC(=O)c2ccc(Cl)cc2Cl)cc1C#N (stereo not given)
 : -0.16 | x
> CC(=O)OC1COC(NC(=S)Oc2ccccc2)C(OC(C)=O)C1OC(C)=O (stereo not given)
 : 0.065 | -1.6
> CC(=O)Nc1nc(C(C)(C)C)cs1
 : x | -0.55
> CCNC(=S)NCc1ccc2[nH]c(C)cc2c1
 : 0.1 | -0.8
> O=C(CN1C(=O)c2ccccc2C1=O)OC1CCOC1=O (stereo not given)
 : x | 0
> C=CCNC(=S)NNc1ccccc1Cl
 : x | -0.25
> CCN(CC)C(=O)C1(S(=O)(=O)c2ccc(Cl)cc2)CC1
 : -0.56 | -1.6
> COc1ccc(NC(=O)COC(=O)C2CCCCC2)cc1
 : x | -0.4
> CCOc1ccccc1N1C(=O)C2C3C=CC(CC3)C2C1=O (stereo not given)
 : 0.1 | x
> Cc1ccc(Sc2c(C)nn(C(=O)CNS(=O)(=O)c3ccccc3)c2C)cc1
 : 0.005 | -0.55
> O=C(CSc1nc2ccccc2c(=O)n1CCCN1CCOCC1)c1ccccc1
 : x | -0.85
> COc1cc(-c2nc3ccccc3c(=O)n2NCc2ccc(Br)cc2)cc(OC)c1OC
 : -0.05 | x
> O=C1CN=C(Nc2cccc(C(F)(F)F)c2)N1C1CCCC1
 : x | 1.3
> COCC(C)n1c(SCC(=O)c2ccc[nH]2)nc2ccccc2c1=O (stereo not given)
 : x | 0.15
> O=C(CCC(=O)N1CCN(c2ccc(F)cc2)CC1)c1ccccc1
 : -0.77 | 1.2
> O=C(NCc1nnc(SCC(=O)N2CCCC2)o1)c1c(F)cccc1Cl
 : 0.42 | -0.15
> CC(C)N(C(=O)CSc1ccc(Cl)c(Cl)c1)C(C)C
 : 0.04 | 2
> COC(=O)c1ccc(COC(=O)c2cccc(C(F)(F)F)c2)cc1
 : 4.5 | -0.55
> N#Cc1nc2c(C#N)c(N)n(Cc3ccco3)c2nc1C#N
 : 39 | -0.55
> Cc1ccc(C(=O)Nc2nnc(SCC(=O)N3CCCc4ccccc43)s2)cc1[N+](=O)[O-]
 : -0.17 | x
> CCn1c(=N)n(CC(O)c2ccccc2)c2ccccc21 (stereo not given)
 : 0.39 | 0.05
> O/N=C/c1ccc(N2CCOCC2)s1
 : x | -0.35
> CC(C)c1ccc(C2N(Cc3ccccc3)CCN2Cc2ccccc2)cc1
 : 6.1 | x
> COc1ccc(S(=O)(=O)NNC(=O)c2sccc2-n2cccc2)cc1
 : -0.46 | x
> Cc1ccc(C)c(OCCC(=O)Nc2ccc3c(c2)OCO3)c1
 : x | -0.45
> c1ccc2c(c1)OCC(CNc1ncnc3c1oc1ccccc13)O2 (stereo not given)
 : x | 0.2
> COc1cc(CNCc2cccnc2)ccc1OCc1ccccc1
 : -1.1 | -0.9
> CCOC(=O)C(Nc1cccc(F)c1)c1ccccc1 (stereo not given)
 : -0.47 | 0.1
> Cc1ccc(-c2nnco2)cc1
 : -0.81 | -0.9
> Cc1onc(-c2c(Cl)cccc2Cl)c1C(=O)NN1CCCCC1
 : -0.24 | x
> COc1cc(/C=N/NC(N)=S)ccc1OCC(=O)N1CCOCC1
 : -1.7 | 1
> COC(=O)c1cncc(C(=O)OC)c1
 : 0.14 | 0.25
> Cc1cc2nsnc2cc1Cl
 : 0.44 | x
> CC12CCC(c3c(C(=O)O)nn(-c4ccccc4)c31)C2(C)C (stereo not given)
 : 0.45 | -0.3
> CCOC(=O)C1=C(N)Oc2cc(C)n(C)c(=O)c2C12C(=O)N(Cc1ccccc1)c1ccccc12 (stereo not given)
 : x | -1.1
> Cc1onc(-c2ccccc2)c1C(=O)NC1CC1
 : x | 0.05
> CC(Cc1ccccc1)[n+]1cc(/N=C(/N)[O-])on1 (stereo not given)
 : 0.005 | 0.75
> CCOC(=O)CSc1nc2cc(C(=O)N3CCc4ccccc4C3)ccc2c(=O)n1-c1ccccc1
 : 1.3 | x

(continued)
Order of values – CapD inh | AID504770
> Clc1ccc(NC2=NCCS2)cc1Cl
 : 0.075 | -0.15
> Cc1nc2c(ccc3nc(NC(=O)c4ccc(S(=O)(=O)N(C)c5ccccc5)cc4)sc32)s1
 : 0.34 | x
> CCOc1ccc(NC(=O)c2ccc(NC(=O)CSc3nnc(C)n3C3CC3)cc2)cc1
 : x | 0.25
> CC1=CC(=C(C#N)C#N)c2ccccc2N1C
 : x | 0.8
> CCCOC(=O)C1=C(C)NC2=C(C(=O)CC(c3ccc(OC)cc3)C2)C1c1ccc(OC(C)=O)c(OCC)c1 (stereo not given)
 : 42 | x
> Cc1ccc(N=C2NC(=O)C(Cc3ccccc3)S2)cc1 (stereo not given)
 : -0.11 | x
> COC(=O)c1sccc1NC(=O)c1ccccc1
 : 0.3 | x
> O=[N+]([O-])c1c(Nc2ccc(Br)cc2)cc(N2CCCCC2)c2nonc12
 : -0.15 | x
> O/N=C\c1c2ccccc2c(Sc2ccc(Cl)cc2)c2ccccc12
 : -0.61 | x
> O=C(O)c1ccc2c(c1)C(=O)NC2=O
 : x | -0.75
> CSc1sccc1/C=N/NC(=O)c1nnn(-c2nonc2N)c1-c1ccccc1
 : 3.9 | x
> COc1ccc(C2C(C(=O)Nc3cc(C)c(Cl)cc3OC)c3ccccc3C(=O)N2C)cc1 (stereo not given)
 : 0.55 | x
> COC(=O)C(CC(C)C)NC(=O)c1cccs1 (stereo not given)
 : -0.09 | -0.95
> COc1ccc(-n2ncc3c(NCCc4ccc(S(N)(=O)=O)cc4)ncnc32)cc1
 : 9.6 | x
> CS(=O)(=O)Cc1c(Cl)cccc1Cl
 : -0.29 | x
> NNC(=O)c1cc2ccccc2[nH]1
 : 0.2 | -0.35
> Cc1ccc(C(=O)CCN2CCOCC2)cc1
 : -0.48 | -1.2
> O=C(CSc1nc2c(cnn2-c2ccccc2)c(=O)[nH]1)c1ccccc1
 : -0.48 | x
> COc1ccc(-c2nc(N)sc2-c2ccccc2)cc1
 : -0.7 | 0.25
> O=C1N(c2cccc(Cl)c2)C(=Nc2cccc(Cl)c2)SC12CC2
 : 0.89 | -0.15
> N#Cc1c(NC(NC(=O)c2ccco2)(C(F)(F)F)C(F)(F)F)sc2c1CCCCC2
 : 0.58 | 0
> Cc1nc(SCC(=O)N2CCCc3ccccc32)c2c(=O)n(C)c(=O)n(C)c2n1
 : 0.1 | 0.45
> COc1cccc(OCC(=O)Oc2ccc(Br)cc2)c1
 : -0.75 | -0.8
> COc1ccc(/C=C/C(=O)NC(=O)c2ccccc2OCC(=O)c2ccc(Br)cc2)cc1
 : 0.28 | 0.05
> COc1cc(C2C(C(=O)Nc3ccc(C)cn3)=C(C)NC3=C2C(=O)CCC3)cc(OC)c1OC (stereo not given)
 : 1.8 | x
> Clc1cc(Br)ccc1N=Cc1ccc2c(c1)OCO2
 : 0.1 | -1.5
> COc1ccc(C2Oc3ccc(Cl)cc3C=C2[N+](=O)[O-])cc1 (stereo not given)
 : 0.22 | x
> CCOc1ccc(CNC(=O)c2cc3oc4ccccc4c3n2CC)cc1
 : 6.9 | 0.35
> O=C(OC(C(=O)NCc1cccs1)c1ccccn1)c1cccs1 (stereo not given)
 : x | 0.15
> CCOC(=O)c1ccc(CNC(=O)C(Cc2ccccc2)N2Cc3ccccc3C2=O)cc1 (stereo not given)
 : 0.18 | 0.55
> CC(C)(C)C(=O)COC(=O)c1ccc(Cl)cc1N
 : 99 | -0.45
> CCCN(CC(=O)Nc1ccc(F)c(F)c1F)CC(=O)Nc1c(C)n(C)n(-c2ccccc2)c1=O
 : x | -0.45
> CCOC(=O)COc1ccc(C2Nc3ccc4ccccc4c3C3=C2C(=O)CC(C)(C)C3)cc1OC (stereo not given)
 : 42 | x
> Cc1ccc2c(c1)N(C(=O)c1ccco1)C(C)(C)c1ssc(=S)c1-2
 : -0.58 | 1.9
> Cc1cc(C)n(CCc2nc(-c3ccc(C)c(C)c3)cs2)n1
 : x | 0.55
> COc1ccccc1Nc1nc(-c2cc3cccc(OC)c3oc2=O)cs1
 : 0.085 | 0.95
> CCc1ccccc1NC(=O)Cn1c(C(=O)OC)cc2ccsc21
 : 1.1 | 0.6
> COCCn1c(SCC(=O)NCc2ccccc2Cl)nc2cc(C(=O)OC)ccc2c1=O
 : 0.35 | -0.2
> Cc1ccc(C=C(C#N)C#N)c(C)c1
 : -0.54 | -1.4
> COc1ccc(C(C(=O)NC2CCCC2)N(Cc2ccco2)C(=O)Cn2nc(C(F)(F)F)c3c2CCCC3)cc1 (stereo not given)
 : x | -0.65

Assay outcomes (PubChem)
